# Screening results deposited in PubChem by Johns Hopkins Ion Channel Center.
# KCNQ2 inh: KCNQ2 potassium channel inhibitors, primary screen, cell-based, CHO-K1, FluxOR thallium flux, B-score (AID 2156); 20 min; stronger effect = lower value; only compounds with negative scores are shown here; some inactives read as strong as hits; Potassium voltage-gated channel subfamily KQT member 2 (Rattus norvegicus), O88943; 310,000 tested, 1.1% active; B-score at 10 µM;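 active = fluorescence ratio B-score at most minus 3 library SDs, with starting brightness B-score within 2 library SDs, cut at about -5.5 in these data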
# Target sequence (O88943 whole entry, looked up): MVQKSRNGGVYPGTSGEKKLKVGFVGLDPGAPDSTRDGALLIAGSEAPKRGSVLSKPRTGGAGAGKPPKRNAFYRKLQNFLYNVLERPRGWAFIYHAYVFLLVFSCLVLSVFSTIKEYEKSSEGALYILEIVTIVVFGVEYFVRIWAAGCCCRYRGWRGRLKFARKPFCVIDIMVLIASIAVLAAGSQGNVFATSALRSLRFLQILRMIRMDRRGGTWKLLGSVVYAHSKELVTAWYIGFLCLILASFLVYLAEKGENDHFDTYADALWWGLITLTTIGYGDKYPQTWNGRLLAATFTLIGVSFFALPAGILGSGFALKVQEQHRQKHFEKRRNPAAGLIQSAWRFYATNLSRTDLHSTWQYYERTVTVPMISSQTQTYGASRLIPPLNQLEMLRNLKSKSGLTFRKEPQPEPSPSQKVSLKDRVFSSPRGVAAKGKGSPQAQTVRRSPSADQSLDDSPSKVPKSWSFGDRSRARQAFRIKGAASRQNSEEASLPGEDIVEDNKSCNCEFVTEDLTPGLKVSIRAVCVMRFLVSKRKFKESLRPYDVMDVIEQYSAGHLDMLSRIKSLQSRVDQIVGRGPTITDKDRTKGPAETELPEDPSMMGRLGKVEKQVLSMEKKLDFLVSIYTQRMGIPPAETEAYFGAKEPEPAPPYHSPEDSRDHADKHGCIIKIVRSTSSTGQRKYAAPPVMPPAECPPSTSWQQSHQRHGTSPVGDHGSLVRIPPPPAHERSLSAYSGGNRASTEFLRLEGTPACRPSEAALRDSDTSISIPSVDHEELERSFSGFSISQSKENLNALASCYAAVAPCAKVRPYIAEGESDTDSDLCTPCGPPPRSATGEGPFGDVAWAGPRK
# KCNQ2 inh baseline: further read-out of KCNQ2 inh, marked with its call; B-score; measured here: initial fluorescence intensity artifact check;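 brightness before thallium and not channel activity; 0 = typical well and far values either way flag optical interference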
# * hit, by the source's call; i = inactive. These rows are one share of the data; rates above refer to the full screens.
SMILES,KCNQ2 inh,KCNQ2 inh baseline
COc1ccc(NC(=O)Cc2nnc(SCC(=O)Nc3ccccc3)n2C)cc1,i,1.23
COc1nc(OC)nc(N2CCC(C(=O)Nc3cccc4c3CCCC4)CC2)n1,i,0.49
CCN(Cc1nc(-c2ccccc2)no1)C(=O)c1ccc2c(c1)OCO2,i,1.35
O=C(NC(=S)Nc1c(Cl)ccc2nsnc12)c1ccco1,i,0.59
COCCNc1nc2c(c(=O)n(Cc3cccc(Br)c3)c(=O)n2C)n1C,i,-0.01
O=C(c1csc2c1CCCC2)N1CCN(c2ncccn2)CC1,i,-0.53
COc1ccc(N2CCN(C(=O)c3nn(C)c4c3CS(=O)(=O)c3ccccc3-4)CC2)cc1,i,0.07
CCOc1ccc(OCC)c(NC(=O)CN2CCN(c3cc(C)ccc3C)CC2)c1,-5.63*,0.08*
O=C(NC1CCCc2ccccc21)c1ccc(S(=O)(=O)N2CCOCC2)cc1 (stereo not given),i,1.34
CC1CCCCN1Cc1c(C#N)c2ccccc2n1C (stereo not given),i,-2.69
Cc1ccc(C)c(S(=O)(=O)N2CCCC2CNC(=O)C(=O)NCc2ccccc2C)c1 (stereo not given),i,-0.11
Cn1nccc1C(=O)OCC(=O)Nc1ccccc1,i,-0.53
Cn1c(SCC(=O)N/N=C/c2ccco2)nc2ccccc21,i,-1.57
CCCC(=O)N1c2ccc(-c3csc(N)n3)cc2CC1C (stereo not given),i,-1.1
Clc1ccc(Oc2nnnn2-c2ccccc2)cc1,i,-1.51
CCOC(=O)C(=N/O)/C(C)=N/NC(=O)C(=O)Nc1ccc(Cl)cc1,i,1.57
Cc1cc(C(=O)COC(=O)COc2ccc(C#N)cc2)c(C)n1C1CC1,i,-1.65
CCOC(=O)C1(Cc2ccccc2)CCN(Cc2cnc(N3CCOCC3)s2)CC1,i,-1.16
O=C(CSc1nnc(-c2cccs2)n1Cc1ccco1)c1ccc2c(c1)OCO2,i,4.98
Cc1cc(C)c(C(=O)/C=C/c2ccco2)c(=O)[nH]1,i,1.57
O=C(N/N=C/C(Br)=C/c1ccccc1)NC1CCCCC1,i,2.3
COC(=O)c1sccc1NC(=O)Nc1ccc(F)cc1,i,1.54
Cc1ccc2nc(NCc3ccco3)c(C=NCc3ccco3)c(=O)n2c1,i,-0.02
Cn1c(-c2ccccc2)cc2ccccc21,i,-0.95
CCN(CC)S(=O)(=O)c1ccc(S(=O)(=O)N(Cc2ccccn2)Cc2ccco2)cc1,i,0.67

# (more compounds)
SMILES,KCNQ2 inh,KCNQ2 inh baseline
O=S1(=O)N=C(N(Cc2cccs2)c2ccc(O)cc2)c2ccccc21,i,1.03
COC(=O)Nc1nc(C)c(C(=O)N(C)C)s1,i,-0.6
Cc1nc(N)nc(N)c1CCCc1ccc(Cl)c(Cl)c1,i,1.15
COc1ccc2[nH]c3c(c2c1)CCN1C(=O)N([C@@H](C)C(=O)NCc2c(F)cccc2Cl)C(=O)[C@]31C,i,1.92
Cn1c(=O)c([N+](=O)[O-])c(-n2ccnc2)c2ccccc21,-6.05*,2*
Cn1c(-c2ccncc2)nc2ccccc21,i,0.88
CN(CC(=O)Nc1ccccc1Br)C(=O)CNC(=O)c1ccc(Oc2ccccc2)cc1,i,0.78
CC(C)CC(NC(=O)C1CCC(=O)N1)C(=O)NC(CC(C)C)C(=O)N1CCCC1C(N)=O (stereo not given),i,1.91
CSc1ccccc1NC(=O)CN(Cc1ccc(Cl)cc1)S(C)(=O)=O,i,-0.92
CN(CCOc1ccccc1)C(=O)C1CCC(=O)N(CCN2CCOCC2)C1 (stereo not given),i,-0.26
CCCc1cc2c(=O)c(-c3ccc4c(c3)OCCO4)c(C)oc2cc1OS(C)(=O)=O,i,2.32
CSc1ccccc1NC(=O)C1C2CCC(C2)C1C(=O)O (stereo not given),i,0.53
c1ccc(Cn2nnnc2C(c2ccccn2)N2CCOCC2)cc1 (stereo not given),i,3.07
CC1CC(C)CN(C(=O)COC(=O)CNS(=O)(=O)/C=C/c2ccccc2)C1 (stereo not given),i,1.26
Cc1ccc(N(C(=O)CNC(=O)c2ccco2)C(C(=O)NC2CCCCC2)c2cccnc2)cc1C (stereo not given),i,1.11
CCOP(=O)(OCC)c1nc(-c2ccc(C)cc2)oc1NCc1ccccc1,i,-0.71
O=C(NNc1nc2ccc(F)cc2s1)c1cccc(F)c1,i,0.23
COc1ccc(S(=O)(=O)N2CCN(CC(=O)Nc3cccc(OC)c3)CC2)cc1,i,-2.66
COc1ccccc1NC(=O)CCC(=O)OCc1cccc([N+](=O)[O-])c1,i,1.41
O=C1NNC(c2ccccc2)=N/C1=C\c1ccccc1,i,1.26
CC(c1ccco1)N(C(=O)c1ccc(Cl)s1)c1ccccn1 (stereo not given),i,-0.34
Cc1ccsc1C(=O)C1CCCN(Cc2cn(C)nc2-c2ccccc2)C1 (stereo not given),i,-0.79
Cc1noc(C(=O)Nc2cc(Cl)ccc2O)c1Cl,i,-0.1
Cc1cc2[nH]c(=O)c(=O)[nH]c2cc1S(=O)(=O)N1CCN(c2cccc(C(F)(F)F)c2)CC1,i,0.81
CC1=C(C(=O)Nc2ccc(C(=O)N3CCN(c4ccccc4F)CC3)cc2)SCCO1,i,-0.07

# Carrying on:
SMILES,KCNQ2 inh,KCNQ2 inh baseline
COc1ccccc1OCCOc1ccc(/C=C2\C(=N)N3N=C(S(C)(=O)=O)SC3=NC2=O)cc1,i,-1.69
CCN(CC(=O)NCc1ccc(Cl)cc1)C(=O)CCC(=O)c1ccc(C)cc1,i,-1.53
CCC(C)(C)N1CC(=O)N(Cc2ccccc2)C(c2ccc(OC)cc2)C1=O (stereo not given),i,1.31
Cc1nc2ccccc2c2oc(C(=O)NCCN3CCN(C)CC3)cc12,i,-2.64
COc1ccc(-c2noc(CCCc3ccccc3)n2)cc1OC,i,-0.04
Cc1cc(C)n2cc(CSCc3ccccc3)nc2n1,i,-0.3
O=C(Nc1ccc(F)cc1)N(CCCN1CCOCC1)Cc1cc2cc3c(cc2[nH]c1=O)OCCO3,i,-1.43
NS(=O)(=O)c1ccc(NC(=O)CCC(=O)c2cccs2)cc1,i,0.06
O=C(COC(=O)c1ccc2ccccc2c1)Nc1ncc(C(F)(F)F)cc1Cl,i,-0.71
Cc1ccc(-c2cc(C(=O)N3CCN(c4ncccn4)CC3)c3cc(Br)ccc3n2)o1,i,0.38
CCc1cccc(OCC(=O)Nc2c[nH]c(=O)[nH]c2=O)c1,i,1.46
N#C/C(=C\c1ccco1)C(=O)Nn1cnnc1,i,-0.04
O=C(COc1cccc2ccccc12)NNC(=O)[C@@H]1CCCC[C@@H]1C(=O)O,i,-0.01
COc1ccc(-n2nnnc2SCC(=O)c2cccc(OC)c2)cc1,i,-0.5
Cc1ccnc(NC(=O)CCC(=O)N(CC(=O)NCc2ccccc2)Cc2ccco2)c1,i,-1.37
COCc1ccc(CN2CCc3c([nH]c4ccccc34)C2CC(C)C)o1 (stereo not given),i,0.6
CCOc1ccc(C(=O)c2nc3c(n2O)CCCC3)cc1,i,5.24
CSC(=NS(=O)(=O)c1ccccc1)SC,i,-0.01
CN(C)CCN1C(=O)c2oc3ccccc3c(=O)c2C1c1cccc(Br)c1 (stereo not given),i,0.49
Cc1cc(NC(=O)COC(=O)C2CC(=O)N(c3ccc(Br)cc3)C2)no1 (stereo not given),i,-0.08
CCOC(=O)c1c(C)n(OCc2ccccc2)c2ccc3nonc3c12,i,1.17
N#Cc1ccccc1NC(=O)CNc1ccccc1N1CCCCC1,i,0.08
Cc1cc(Cl)c(S(=O)(=O)Nc2ccon2)cc1OCC(=O)NC1CCCCC1,i,-0.65
COc1cc2ncnc(NCc3ccc4c(c3)OCO4)c2cc1OC,i,-2.05
CCCS(=O)(=O)c1nc(S(=O)(=O)c2ccc(C)cc2)c(N2CCCC2)s1,i,-2.25

# In a second layout: entries from further up.
CCC(C)(C)N1CC(=O)N(Cc2ccccc2)C(c2ccc(OC)cc2)C1=O (stereo not given)
  KCNQ2 inh = i
  KCNQ2 inh baseline = 1.31

Cc1nc2ccccc2c2oc(C(=O)NCCN3CCN(C)CC3)cc12
  KCNQ2 inh = i
  KCNQ2 inh baseline = -2.64

COc1ccc(-c2noc(CCCc3ccccc3)n2)cc1OC
  KCNQ2 inh = i
  KCNQ2 inh baseline = -0.04

Cc1cc(C)n2cc(CSCc3ccccc3)nc2n1
  KCNQ2 inh = i
  KCNQ2 inh baseline = -0.3

# 6 entries out of the list above, arranged by the number in KCNQ2 inh baseline, ascending:
SMILES,KCNQ2 inh,KCNQ2 inh baseline
Cc1cc(Cl)c(S(=O)(=O)Nc2ccon2)cc1OCC(=O)NC1CCCCC1,i,-0.65
COCCNc1nc2c(c(=O)n(Cc3cccc(Br)c3)c(=O)n2C)n1C,i,-0.01
Cc1ccc(N(C(=O)CNC(=O)c2ccco2)C(C(=O)NC2CCCCC2)c2cccnc2)cc1C (stereo not given),i,1.11
CCN(Cc1nc(-c2ccccc2)no1)C(=O)c1ccc2c(c1)OCO2,i,1.35
COc1ccccc1NC(=O)CCC(=O)OCc1cccc([N+](=O)[O-])c1,i,1.41
Cc1cc(C)c(C(=O)/C=C/c2ccco2)c(=O)[nH]1,i,1.57

# (list continues)
SMILES,KCNQ2 inh,KCNQ2 inh baseline
COCCCN1C(=O)C(O)=C(C(=O)c2ccco2)C1c1ccccc1 (stereo not given),i,-0.02
Cc1nn(Cc2ccccc2Cl)c(C)c1NC(=O)c1noc2c1CCCCC2,i,0.92
O=C(Cc1cccs1)NCc1cc(Cl)cc(Cl)c1,i,-0.21
CC(=O)Nn1cc2c(=O)n(C)c(=O)n(C)c2c1,i,-1.67
COc1cc2c(c(OC)c1OC)-c1ccc(NC(=O)c3ccccc3)c(=O)cc1[C@@H](NC(C)=O)CC2,i,-0.73
S=C(c1ccc(-c2ccccc2Cl)o1)N1CCCCC1,i,0.4
Cc1cc(C)c2[nH]c(=O)c(CN(Cc3ccco3)C(=S)NCC3CCCO3)cc2c1 (stereo not given),i,-0.16
CCc1cc(=O)oc2c3c(cc(OCC(=O)NCc4ccncc4)c12)OC(C)(C)CC3,i,-0.08
COC(=O)c1ccccc1NC(=O)N1CCCC1,i,-0.82
O=C(NNC(=S)Nc1ccc(Cl)cc1)c1ccccc1,i,-1.53
CCOC(=O)C(Cc1ccccc1)NC(=O)CCc1c(C)nc2ncnn2c1C (stereo not given),i,-1.85
CCCc1cnc(N2CCN(S(=O)(=O)c3cccs3)CC2)nc1,i,-1.53
Cc1ccc(S(=O)(=O)c2nc(-c3ccco3)oc2SC(C)C)cc1,i,-0.05
COc1ccccc1-c1noc(CCCC(=O)N2CCOCC2)n1,i,1.27
CCOC(=O)C(=CNc1ccc2c(c1)nnn2-c1ccc(Cl)cc1)C(=O)OCC,i,-0.94
CN(C)c1ccc(N=Cc2nc(-c3ccccc3)oc2O)cc1,i,-2.09
Cc1cccc(NC(=O)CSc2ncnc3nc[nH]c23)c1C,i,0.34
Cn1ccnc1C(=O)c1cccc(Br)c1,i,-0.59
CC(C)c1nnc(NC(=O)CC23CC4CC(CC(C4)C2)C3)s1,i,0.18
CCC1C(c2ccccc2)N(C)C(c2ccccc2)CC1(O)c1ccccc1 (stereo not given),i,0.43
Cc1ccc(-c2n[nH]c(=S)c3ccccc23)cc1,i,-0.01
O=C(CSc1ccc(-c2ccc(Cl)cc2)nn1)NC1CCCC1,i,-0.08
CCOC(=O)CC(=O)NC1(Cc2ccc(O)cc2)CCCCC1,i,0.59
COCCn1c(=S)[nH]c2cc(C(=O)N3CCc4ccccc43)ccc2c1=O,i,-0.28
COc1ccc(-c2[nH]ncc2-c2ccc(Cl)cc2)c(O)c1,i,-2.12

# Next section.
SMILES,KCNQ2 inh,KCNQ2 inh baseline
c1ccc(N2CCN(CCc3nnc4n3CCCCC4)CC2)cc1,i,-0.06
O=C(N=C1c2ccccc2CN1c1cccc(Cl)c1)c1cccnc1,i,0.5
COC(=O)c1ccccc1NC(=O)CSc1nnnn1-c1ccc(C)cc1C,i,-0.81
CCOc1nc2ccccc2nc1NS(=O)(=O)c1ccccc1,i,1.27
O=C(NCCCc1ccccc1)c1cc(COc2c(F)cccc2F)on1,i,0.1
CCN=C1NN=C(c2cc(C)n(Cc3ccco3)c2C)CS1,i,0.47
COc1cccc(OCc2cc(C(=O)N3CCCC3c3ccccn3)no2)c1 (stereo not given),i,0.15
C=CCN(C(=O)CCC(=O)Nc1cc(C)on1)C(C(=O)NC(C)(C)CC)c1cccc(OC)c1OC (stereo not given),i,0.28
COc1ccc(C2(C(=O)Nc3ccc(OC)cc3OC)CCCC2)cc1,i,0.38
COc1cc(OC)c(S(=O)(=O)Nc2ccccc2N2CCCCC2)cc1NC(C)=O,i,0.46
Cc1ccc(S(=O)(=O)N(C)CC(=O)Nc2cccnc2)cc1,i,-0.7
CCc1ccccc1NC(=O)c1ccc2c(O)c(S(=O)(=O)c3ccc(OC)cc3)c(=O)[nH]c2c1,i,0.03
CCCCNC(=O)CC1NCCNC1=O (stereo not given),i,0.16
C=C(C(=O)c1ccccc1)C(C(=C)C(=O)c1ccccc1)c1ccc(OC)cc1,i,0.05
CCN1C(=O)[C@H]2[C@@H](c3ccc(C)cc3)N3C(=O)N(c4ccc(OC)cc4)C(=O)[C@@]3(Cc3ccccc3)[C@H]2C1=O,i,-0.69
Cc1cccc(C(=O)Oc2ccccc2/C=N/NC(=O)c2ccc(NC(=O)C(C)(C)C)cc2)c1,i,-0.02
CCOCCCN(C)C1CCN(C(=O)c2oc3ccccc3c2NC(=O)c2ccc(F)cc2)CC1,i,-0.22
COc1ccc(/C=C2/NC(=O)CNC2=O)cc1,i,-0.59
CC1(C)C[C@@H]2C[C@@](C)(CN2C(=O)c2cc(COc3cccc(C(F)(F)F)c3)on2)C1,i,-0.01
COc1ccc2[nH]c(C)c(C(=O)CN3CCc4cc(OC)c(OC)cc4C3)c2c1,i,-0.55
CN1CCN(C(=S)NC(=O)c2ccccc2Br)CC1,i,1.2
O=C(N/N=C/c1ccccc1O)c1cc(=O)[nH]c2ccccc12,i,-0.05
COC(=O)c1sccc1NC(=S)Nc1ccccc1,i,0.61
